BasE inh: inhibitors of Acinetobacter baumannii siderophore enzyme BasE | purified BasE, fluorescence polarization binding displacement | inhibition, % (test concentration not listed) | 0.1% of 84,000 active | AID 485350;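 active means both replicates above 25% with normal brightness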;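 further: 0% = negative plate control signal and 100% = positive plate control signal; stock transfer was 100 nL into about 30 µL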
KSHV LANA nucl: inhibitors of KSHV LANA binding to nucleosomes; FITC-LANA1-23 / chicken nucleosome fluorescence polarization; stronger effect = lower value; z-score (concentration not given with the values); 0.3% of 51,000 active; AID 720717;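 active means both repeat wells score below -2 in polarization z-score versus plate sample wells, excluding overly bright wells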;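 further: 100 nL library stock added to about 30 µL; numbers are from one replicate; some results filed as inactive read as strong as hits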
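test system = FITC-LANA peptide and chicken nucleosomes | amount = 240 nM purified chicken nucleosomes (480 nM peptide binding sites), final | reagent = 50 nM FITC-LANA1-23 probe | medium = TEN-BT buffer, pH 7.5 | doses = single compound addition by pin transfer, 100 nL per well | timing = 10–45 min, room temperature | detection = fluorescence polarization | repeats = duplicate plates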
An asterisk follows results filed as active; · = not tested or not shown; & = joins results of further samples.

The line under a structure holds: BasE inh	KSHV LANA nucl
> COc1ccc(CNc2nccs2)cc1OC
  -3.8	2.7
> CC(=O)Nc1ccc2c(COC(=O)c3ccc(S(=O)(=O)N(C)C)cc3)cc(=O)oc2c1
  3.0	·
> O=C(Cc1ncc(-c2ccccc2)cn1)c1ccccc1
  6.4	-0.41
> O=C(C1c2ccccc2C(=O)N2CCc3ccccc3C12)N1CCN(c2ccccc2)CC1 (stereo not given)
  0.5	-1
> Cc1cc(C(=O)CSc2nnc(CN3CCCC3)o2)c(C)n1-c1ccccc1
  2.1	·
> Cc1ccnc(NS(=O)(=O)c2ccc(N)cc2)n1
  0.5&-2.5	-0.28&0.12&1.4
> O=C(CN1C(=O)S/C(=C\C=C\c2ccccc2)C1=O)N1CCOCC1
  1.3	·
> C=CCNS(=O)(=O)c1cc2c3c(c1)CCN3C(=O)CC2
  0.8	-0.96
> O=C(O)c1cccc(S(=O)(=O)NC2CC2)c1
  2.1	·
> COCCn1c(-c2ccccc2)n[nH]c1=S
  4.5	-0.17
> CCOC(=O)/C(C#N)=C/NC1CCN(Cc2ccccc2)CC1
  1.7	0.23
> CCc1cc(Cl)n2c(nc3ccccc32)c1C#N
  -4.8	·
> Nc1nc(N)c2nccnc2n1
  3.8	-0.64
> CN(CC(=O)Nc1ccc(N2CCOCC2)cc1)CC(=O)Nc1cccc(Br)c1
  1.2	·
> C=Cn1cccc1C(=O)O
  -0.6	0.43

Single records, as listed above.
Results for O=C(O)c1cccc(S(=O)(=O)NC2CC2)c1 = BasE inh = 2.1; KSHV LANA nucl = ·
Results for Nc1nc(N)c2nccnc2n1 = BasE inh = 3.8; KSHV LANA nucl = -0.64

Next part
The line under a structure holds: BasE inh	KSHV LANA nucl
> CN1CCN(C2=Nc3cc(F)ccc3Cc3ccccc32)CC1
  ·	-0.72&0.98
> CN1CCC(N(C)C(=O)c2ccccc2Nc2ccc(SC(F)F)cc2)CC1
  0.8	·
> COc1ccc2ncc3c(c2c1)-c1cc(Cl)ccc1OC3
  -1.7	·
> Cc1ccc2nc(SCC3CCCCO3)[nH]c2c1 (stereo not given)
  -1.2	·
> O=C(O)CCN(Cc1ccccc1)S(=O)(=O)c1ccccc1Cl
  0.8	·
> C=CCn1c(=O)c2c(C)c(C)sc2n2c(Nc3ccccc3)nnc12
  -0.4	0.43
> CC(=O)Oc1cccc(NC(=O)CC2SC(N)=NC2=O)c1 (stereo not given)
  1.9	0.021
> O=C(NCc1cccs1)c1csc(Cc2c(Cl)cccc2Cl)n1
  0.3	·
> O=c1[nH]ncc(NCCc2ccccc2)c1Cl
  0.2	-0.25
> Cc1noc(C)c1COC(=O)Cc1ccc(Cl)cc1
  0.6	·
> O=C(CN1CCC(C(=O)Nc2ccccc2)CC1)NCc1ccc(CN2CCOCC2)cc1
  1.5	·
> O=C(O)CCN1CCSC1=O
  2.4	·
> Cn1c(C(=O)O)ccc1S(=O)(=O)N1CCN(c2ccc(C(F)(F)F)cn2)CC1
  -1.9	2.8
> CCOc1ccc(Cc2nc(C)c(CC(=O)N3CCOCC3)c(=O)[nH]2)cc1
  0.2	·
> COc1ccc(C(=O)OCC(=O)NC23CC4CC(CC(C4)C2)C3)cc1S(=O)(=O)N1CCOCC1
  -2.5	·
> COCCn1c(SCC(=O)N2c3ccccc3CC2C)nc2ccccc2c1=O (stereo not given)
  -0.5	·
> CC1CCN(CCCNC(=O)CCn2nc(-c3ccccc3)ccc2=O)CC1
  -1.5	1.4
> CCOC(=O)c1cnc2c(-c3ccccc3)cnn2c1C
  2.5	·
> COc1ccc(N2CCN(C(=O)c3ccccc3OC)CC2)cc1
  -2.6	-0.53
> N#Cc1ccccc1Sc1ccccc1C(=O)OCC(=O)NC1CC1
  2.4	·
> N/C(COc1cc(Cl)cc(Cl)c1)=N\O
  1.0	-0.5
> CC(C)NCC(O)COc1ccc(CCOCC2CC2)cc1 (stereo not given)
  -2.5	0.24&-0.27&0.22
> Cc1ccc(Oc2coc3cc(OCC(=O)N4CCCCC4)ccc3c2=O)cc1
  0.6	·
> CN1CCC(OC(=O)c2ccc(Cl)cc2Cl)CC1
  0.8	0.92
> COc1ccc(C(=O)Nc2ccc(CN3CCCCC3)cc2)cc1
  -2.1	-0.8
> O=C(CCn1c(=O)oc2ccccc21)N(Cc1ccccc1)c1ccccc1
  3.1	-0.14
> OC(CNC1Cc2ccccc2C1)COc1ccc(F)cc1 (stereo not given)
  -1.2	·
> COc1ccc(/C=C2\SC(=O)N(CCNS(=O)(=O)c3ccccc3OC)C2=O)cc1
  3.0	·
> Cc1nn(CC(=O)Nc2ccccc2F)c(=O)c2cccn12
  0.0	-0.51
> COc1cc(OC)c(S(=O)(=O)N(C)c2ccccc2)cc1S(=O)(=O)N(C)c1ccccc1
  2.7	-0.42
> CCOc1ccc(C(=O)NC(C(=O)NCC2CCCO2)C(C)C)cc1 (stereo not given)
  3.3	·
> O=C(c1ccccc1)N1CCN(S(=O)(=O)c2ccccc2)CC1
  -0.3	0.084
> N#Cc1ccccc1NC(=O)CN1CCN(S(=O)(=O)/C=C/c2ccccc2)CC1
  -2.2	·
> COC(=O)c1noc(C)c1-c1ccnn1C(=O)c1ccc(Cl)cc1
  1.1	-0.62
> Cc1cccc(C)c1N1CCN(C(=O)N2CCCCC2)CC1
  4.9	-0.02
> N#Cc1ccc(OCCOCCn2cncn2)cc1
  0.2	-1.3
> Oc1ccc(-c2csc(-c3ccccc3)n2)cc1O
  1.3	-1.6
> CC(C)(C)C(=O)NCC(=O)O
  -0.8	·
> O=C1CNC(=S)N1CCc1ccc(O)c(O)c1
  5.0	-1
> c1ccc2c(c1)ncn2CCN1CCOCC1
  1.6	-0.33
> Cc1cc(-c2cn3nc(-c4ccccc4)c(-c4ccccc4)nc3n2)c(C)n1Cc1ccco1
  13	·
> Cc1c(C#N)c(N)n(Cc2cc(C(F)(F)F)cc(C(F)(F)F)c2)c1C
  -12	3.1
> COC(=O)C1=C(CN(C)CCc2ccc(OC)c(OC)c2)NC(=O)NC1c1cccc(OC)c1 (stereo not given)
  -1.0	-0.72
> CC(C)(C)C(=O)/C=C/Nc1ccc(F)cc1
  1.4	-0.79
> CC(=O)Oc1ccc(Nc2nc3nonc3nc2Nc2ccccc2)cc1
  -1.4	0.19
> CC(Oc1ccccc1)C(=O)O (stereo not given)
  0.4	·
> COc1ccc(/C=N/c2nc3ccccc3n2Cc2ccc(Cl)cc2)cc1OC
  -3.0	·
> CCS(=O)(=O)C1=NN2C(=N)/C(=C\c3ccc(OC)cc3)C(=O)N=C2S1
  -0.7	-0.01
> COCCN(Cc1nc2ccccc2c(=O)[nH]1)C(=O)C1=NN(c2cccc(C)c2)C(=O)CC1
  0.3	·
> O=C(Cc1ccc(Cl)cc1)Nc1ccccc1C(=O)N1CCOCC1
  -0.1	-0.38
> COCCN(C(=O)c1ccco1)c1nnc(-c2ccc(F)cc2)s1
  2.5	0.26
> CC(C)(C)OC(=O)N1CCC(CNS(=O)(=O)c2cccc(C(F)(F)F)c2)CC1
  2.5	·
> Cn1c(NC(=O)c2ccccc2NC(=O)c2ccccc2)nc2ccccc21
  -3.9	·
> CCCCN(C)C(=O)C1CCCN(c2nnc(C)c3c(C)n(-c4ccccc4)nc23)C1 (stereo not given)
  -2.1	·
> Cc1cc(C)nc(NC(N)=NC(C)c2ccccc2)n1 (stereo not given)
  -4.4	0.62
> O=C1NC2(CCCc3sccc32)C(=O)N1CCN1C(=O)c2ccccc2C1=O (stereo not given)
  0.0	·
> COc1ccc(CC(=O)OCC(=O)NC2CC2)cc1
  0.5	·
> O=C(Nc1c(C(=O)N2CCOCC2)cnn1-c1ccccc1)c1ccccc1F
  1.0	0.29
> Clc1cc2c(c3ncccc13)OCN(CCc1ccccc1)C2
  -3.4	·
> Cc1ccccc1OCCn1cnc2c(N)ncnc21
  -0.3	-1.3

Further structures.
The line under a structure holds: BasE inh	KSHV LANA nucl
> Cc1nn(-c2ccccc2)c(C)c1COC(=O)c1ccc(S(=O)(=O)N(C)C)cc1
  2.2	·
> Clc1nncc2ccccc12
  2.5	·
> C=CCN(CC=C)S(=O)(=O)c1ccc(C(=O)N2CC(C)CC(C)C2)cc1 (stereo not given)
  1.4	-1.3
> CC1CC(=O)N(c2ccccc2)N1 (stereo not given)
  -0.8	-0.27
> COc1ccc(OC)c(NC(=O)CCNS(=O)(=O)c2cccc3nonc23)c1
  1.1	1.4
> O=c1ncc(F)c[nH]1
  ·	-0.34
> CC1(C)CC(=NO)CC(C)(C)[NH+]1[O-] (stereo not given)
  0.6	0.33
> O=c1cc2[nH][nH]c(=S)n2c(=O)[nH]1
  2.8	-1.7
> Cc1cc(NC(=O)OCC(F)(F)F)no1
  0.7	·
> O=C(O)CCN(Cc1ccccc1)S(=O)(=O)c1cccc(C(F)(F)F)c1
  2.1	·
> CC(C)NC(=O)Cn1c(SCC(=O)N2CCc3ccccc32)nc2ccccc21
  1.5	0.7
> CCOC(=O)CSc1nnc(Cc2ccc(OCC)cc2)n1C
  1.1	-0.4
> N/C(=N/c1nc2ccccc2o1)NC(=O)Nc1ccc(Cl)c(Cl)c1
  -1.6	·
> CC(C)(C)N(Cc1ccccc1)C(=O)COc1ccccc1
  -0.6	0.23
> O=S(=O)(c1ccccc1)N1CCN(c2nnnn2-c2ccccc2)CC1
  0.7	·
> COc1ccccc1/C=C/C1=NC(=C\c2ccc3c(c2)OCO3)/C(=O)O1
  7.9	·
> COc1ccccc1C(=O)ON1C(=O)c2ccccc2C1=O
  0.9	-1.4
> COc1c(NC(C)=O)oc2ccccc12
  -1.2	0.26
> O=C(NC(=S)Nn1cnnc1)c1ccc(Cl)c(S(=O)(=O)N2CCCCCC2)c1
  -0.1	·
> CCCCN1C(=O)c2ccc(C(=O)OC3CCCCC3=O)cc2C1=O (stereo not given)
  1.9	·
> CC1=CC(OC(=O)Nc2ccc(Cl)cc2)CC(C)(C)C1 (stereo not given)
  -1.3	·
> CSc1nc2ccc3nc(NC(=O)c4ccccc4Cl)sc3c2s1
  -1.9	·
> Cc1ccc(/C=C2\SC(=O)N(CCN3CN(CCO)c4nc5ccccc5n4C3)C2=O)cc1
  0.6	·
> Cc1cccc(-c2nnc(CSc3nnc(C4CC4)n3-c3ccccc3)o2)c1
  -0.1	·
> Cc1oc2c(Cl)c(Cl)c(O)c(CN(C)C)c2c1C(=O)c1ccc(Cl)cc1
  0.2	0.71
> COC(=O)c1ccccc1NC(=O)CC1Nc2ccccc2NC1=O (stereo not given)
  7.5	-0.5
> Cc1ccccc1-n1nc(C)c(CC(=O)O)c1C
  0.7	-0.15
> N#Cc1c(=O)n(O)c2ccccc2[n+]1[O-]
  2.1	-13*
> CC(C)CC(=O)NC(=S)N1CCCCCC1
  0.1	0.72
> CCOc1cc(CNCc2nnc3ccccn23)ccc1OCC(=O)N1CCCCC1
  -1.9	·
> O=C(CSc1nnnn1C1CCCC1)NC1CCCc2ccccc21 (stereo not given)
  -0.2	·
> CN(C)CCN(C)C1CCc2ccccc2C1 (stereo not given)
  2.2	-1.1
> O=C(N/C(=C/c1ccc2c(c1)OCO2)C(=O)N1CCCC1=O)c1ccco1
  0.0	0.21
> NC(=O)COC(=O)CSc1ccc(Cl)cc1
  3.3	·
> c1ccc2c(c1)CN1CCCCN1C2
  3.7	0.36
> CCCN(CCC)C(=O)c1cc2c(n(-c3ccc(Cl)c(Cl)c3)c1=O)CC(C)(C)CC2=O
  3.1	·
> COc1ccc(CC(=O)n2c(=O)oc3ccc(C)cc32)cc1
  3.0	-0.91
> C1=C(c2cccc3ccccc23)N2CCN=C2S1
  -4.1	-0.22
> N#CC1=C(N)OC2=C(C(=O)CCC2)C1c1ccccc1C(F)(F)F (stereo not given)
  -1.3	-0.95
> O=C(Cc1ccccc1Cl)Nc1ccccn1
  -1.8	1.4
> COC(=O)c1cc(=O)n(-c2ccccc2C(F)(F)F)[nH]1
  -1.0	-0.38
> CC(C)Cn1c(=N)c(C#N)cc2c(=O)n3ccccc3nc21
  1.7	-0.049
> CCC1(C)NC(=O)N(/N=C/c2ccc(OCC(=O)N3CC(C)OC(C)C3)c(OC)c2)C1=O (stereo not given)
  0.9	·
> Cc1ccccc1NC(=O)CSCc1ccccc1
  2.7	-0.89
> COc1ccc2oc(C(=O)OCc3cccc(S(=O)(=O)N4CCOCC4)c3)c(C)c2c1
  -6.0	·
> Clc1ccc(COn2nnc3ccccc32)cc1
  0.5	-0.52
> CCCCn1c2c(c(=O)n(C)c1=O)C(c1ccc(OC)cc1)C1=C(CCCC1=O)N2 (stereo not given)
  -1.6	·
> Cc1ccc(CNC(=O)NCc2c(C)nn(C)c2C)cc1
  -1.2	-0.28

Assay outcomes from PubChem.

A portion of the library; the hit share may differ from the screen's.
